# Assay outcomes from PubChem BioAssay.
# ClpP mod – qHTS Assay for Activators of ClpP; ATP-dependent Clp protease proteolytic subunit (Bacillus subtilis (strain 168)), P80244; purified B. subtilis ClpP, FRET peptide cleavage, 20 min; Potency, µM (series often up to 57.5 µM), for inactives: at the top dose activity change, negative = active; 340,000 tested, 1.9% active; active = well fitted falling curve with a large enough effect; inconclusive = small, poorly fitted or top-dose-only effect; inactive = no such curve, though single readings can be large or run the other way; also: the source files actives as falling curves though it sought activators and does not explain the sign; nearly all actives have a fitted effect of over 65% in size; many hits overshoot -100%
# Target sequence (P80244 whole entry, looked up): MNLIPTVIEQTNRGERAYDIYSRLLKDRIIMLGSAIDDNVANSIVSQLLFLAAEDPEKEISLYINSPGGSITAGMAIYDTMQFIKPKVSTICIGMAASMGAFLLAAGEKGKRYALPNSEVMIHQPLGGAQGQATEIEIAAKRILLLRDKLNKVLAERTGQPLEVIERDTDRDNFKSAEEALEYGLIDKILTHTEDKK
#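 ClpP 10 microg/mL final, pH 8 Tris/KCl buffer with BSA, glycerol, Tween-20; compound pinned in; FRET-FV substrate; RT 20 min; Ex320/Em430; ΔFRET vs ADEP 5.8 microM, DMSO, no enzyme.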
# An asterisk follows results filed as active; ? = inconclusive. Potency is read from the fitted curve at half-maximal effect. Not all compounds are listed. The share of hits here may be higher or lower than overall.
SMILES,ClpP mod
CC(=O)c1cccc(NC(=O)c2c(N3CCCC3=O)c3cc(F)ccc3n2C)c1,?
CCOc1ccc(NS(=O)(=O)c2ccc3[nH]cc(C(=O)N4CCCC4)c(=O)c3c2)cc1,-8.8%
COc1ccc(NC(=O)c2oc3ccc(S(=O)(=O)N4CCCCC4)cc3c2C)cc1Cl,-12%
CCOc1ccccc1-c1noc(CSc2nnc(-c3ccccc3)n2-c2ccc(OC)cc2)n1,5.7%
Cc1ccc(N2CCN(c3nc4ccc(C(=O)c5ccccc5)cc4n4cnnc34)CC2)c(C)c1,0.0%
CCOCCCNC(=O)c1cn(CC)c2ccc(S(=O)(=O)N3CCc4ccccc4C3)cc2c1=O,-0.8%
COC(=O)c1ccc2c(=O)n(CCCCCC(=O)NCc3ccc(OC)cc3)c(=O)[nH]c2c1,-15%
Cc1ccc(CCNC(=O)c2cc3n(n2)CCCN(Cc2ccc(C)cc2)C3=O)cc1,-3.0%
CCc1ccc(-c2cn3c(n2)sc2cc(C(=O)NCC(C)c4ccccc4)ccc23)cc1 (stereo unspecified),?
CSc1cccc(NC(=O)C2CCN(c3ncnc4c3nc3n4CCCCC3)CC2)c1,0.4%
Cc1ccc(-n2nnc(C(=O)Nc3cc(F)ccc3F)c2C)cc1F,0.2%
Cc1nc2sc(C)c(C)n2c(=O)c1S(=O)(=O)N1CCN(c2ccccc2F)CC1,?
Cc1ccc2occ(CC(=O)Nc3ccc(S(=O)(=O)N4CCC(C)CC4)cc3)c2c1,-3.0%
COc1ccc(S(=O)(=O)N2CCC(Oc3ccc(-n4cnnn4)cc3)CC2)cc1,0.7%
COc1ccc(OC)c(NC(=O)N2CC3CCCN3c3ccccc32)c1 (stereo unspecified),-0.8%
O=C(Cn1cnc2onc(-c3ccc(F)cc3)c2c1=O)N1CCN(c2ccc(F)cc2)CC1,-1.4%
CC(C)c1nc2ccc(C(=O)Nc3ccccc3F)cc2o1,0.4%
CCOc1ccc(-c2cc(C(=O)NCCc3ccc(Cl)cc3)c3ccccc3n2)cc1,4.1%
NC(=O)c1c(NC(=O)c2nc(SCc3ccccc3F)ncc2Cl)sc2c1CCCC2,-0.2%
COc1ccc(N(CC(=O)NCCc2ccccc2)S(=O)(=O)c2ccccc2)c(OC)c1,0.8%
CCNC(=O)c1cnc2sc(N3CCCCCC3)nn2c1=O,11µM*
COC(=O)c1ccccc1NC(=O)c1cn2c3c(ccc(Cl)c3c1=O)OC(C)C2 (stereo unspecified),-8.3%
O=C(NCc1ccccc1Cl)C(=O)NCC(c1ccc2c(c1)OCO2)N1CCOCC1 (stereo unspecified),1.4%
O=C(Cn1c(=O)nc(-c2ccccc2F)c2cc(Cl)ccc21)NCCCc1ccccc1,?
O=C(NCCc1csc2nc(-c3ccccc3F)nn12)c1ccco1,-2.9%
Cc1cccc(NC(=O)C(NS(=O)(=O)c2cccc3nsnc23)c2ccccc2)c1C (stereo unspecified),20%
Cc1nc(C)c(-c2ccc(SCC(=O)Nc3cccc(C)c3C)nn2)s1,0.6%
Cc1cc(NC(=O)CCCn2c(C)c3cnn(-c4ccccc4)c(=O)c3c2C)ccc1Br,-6.1%
CC(C)c1ccc(-c2noc(SCC(=O)N(C)c3ccc(F)cc3)n2)cc1,-4.5%
O=C(CCn1c(=O)c2ccccc2n(Cc2ccc(F)cc2Cl)c1=O)NCc1ccc2c(c1)OCO2,-3.5%
CCCN(C(=O)c1cc2c(s1)-c1ccccc1OC2)c1ccccc1F,4.2%
COc1ccc(NC(=O)CN2C(=O)C(c3ccccc3)=NC23CCC(C)CC3)cc1Cl (stereo unspecified),-4.1%
COc1ccc(Cl)cc1NC(=O)C1CCCN(S(=O)(=O)c2ccc3c(c2)CCCC(=O)N3)C1 (stereo unspecified),-0.9%
Cc1ccccc1Cc1c(C)nc2nc(SCC(=O)N(C)c3ccccc3)nn2c1C,-8.6%
COc1ccc(/C=C/C(=O)Nc2ccc3nc4c(c(Nc5ccccc5OC)c3c2)CCCC4)cc1,-7.6%
O=C(NCc1ccccc1Cl)C1CCC(CNS(=O)(=O)c2ccc(Br)s2)CC1 (stereo unspecified),0.1%
Cc1ccc(NC(=O)CN2C(=O)CCc3cc(S(=O)(=O)N4CCCCC4)ccc32)cc1N(C)C,-0.7%
Cc1ccc(OCc2cc(=O)n3c4c(sc3n2)CCCC4)c(C)c1,-3.1%
O=C(NCc1ccc2c(c1)CCN2C(=O)c1ccc(Cl)cc1)c1cccc(F)c1,-14%
CC(C)OCCCN1C(=O)c2[nH]nc(-c3ccccc3O)c2C1c1cccc(OCc2ccccc2)c1 (stereo unspecified),-0.4%
CCCc1nn2c(=O)cc(COC(=O)c3ccc(NC(=O)COc4ccc(F)cc4)cc3)nc2s1,-2.0%
Clc1ccc(-c2cn3ncsc3n2)cc1,0.5%
CCOC(=O)c1c(NC(=O)c2cc(OC)c(OC)c(OC)c2)sc2c1CCCC2,-1.3%
CCCCCOc1ccc(NC(=O)Cc2csc(C)n2)cc1,0.8%
CC1CCN(c2nn3c(=O)c(C(=O)NCCc4ccccc4)cnc3s2)CC1,4.2%
COc1ccc(CNC(=O)Cc2ccc(NC(=O)N3CCSc4ncccc43)cc2)cc1OC,?
COc1ccccc1-n1c(-c2ccc(C)cc2)cn2c3c(=O)n(C)c(=O)n(C)c3nc12,-2.7%
CC1Cc2ccccc2C[N+]1(C)CC(=O)c1ccc(I)cc1 (stereo unspecified),0.6%
CC(C)C(=O)OC1=CN(Cc2ccccc2)S(=O)(=O)c2ccccc21,-1.0%
Cc1ccccc1NC(=O)c1cc2c([nH]c1=O)CC(C)(C)CC2=O,-25%
CCOC(=O)c1cccc(NC(=O)N2CCC(CN3CCCCCC3)CC2)c1,-3.6%
Cc1cc(NC(=O)c2cc(-c3ccc(Br)cc3)on2)nn1Cc1ccc(Cl)cc1,1.7%
CCc1ccc(C2CC(=O)NC(NC(=O)c3ccc(C(C)(C)C)cc3)=N2)cc1 (stereo unspecified),?
COc1ccc(CCNC(=O)c2c(C)oc3ncn(CC(C)C)c(=O)c23)cc1OC,-1.7%
Cc1cc(=O)[nH]c2nnc(SCc3cccc(C(F)(F)F)c3)n12,-8.9%
COc1ccc(C(=O)Nc2cccc(C(=O)OCc3cc(=O)n4nc(C5CC5)sc4n3)c2)cc1,-18%
CCOc1ccc2c(c1)c(=O)c(S(=O)(=O)c1ccc(CC)cc1)cn2CC,4.2%
COc1ccc(CCNC(=O)CSCc2nc(-c3cccc(C)c3)oc2C)cc1OC,-2.4%
Cc1c(C(=O)Nc2cccc(Cl)c2)oc2ccc(S(=O)(=O)N(C)C3CCCCC3)cc12,20µM*
Cc1cccn2c(Nc3ccccc3)c(-c3cccs3)nc12,4.3%
# (listing goes on)
SMILES,ClpP mod
CCOc1cc(-c2nnc(SCC(=O)NCc3ccc(C)cc3)nc2-c2ccc(OC)c(OCC)c2)ccc1OC,-0.1%
COc1ccc(-c2nc3c4ccccc4n(CC(=O)N4CCN(c5ccccc5OC)CC4)c(=O)n3n2)cc1,-7.3%
CSc1ccc(CNC(=O)c2cc3c(=O)n(Cc4ccco4)ccc3nc2C)cc1,4.4%
CCOc1ccccc1C(=O)Nc1cc2c(cc1N1CCOCC1)n(C)c(=O)n2C,-29%
Cc1cccc(CN2C(=O)c3ccccc3Sc3ccc(C(=O)NCc4ccco4)cc32)c1,-1.1%
O=C(NCCO)C(=O)NCC(c1ccc2c(c1)OCO2)N1CCOCC1 (stereo unspecified),1.1%
Cc1ccc(NC(=O)Cn2c(=O)n(CCCCCC(=O)NCc3ccc(F)cc3)c(=O)c3sccc32)cc1C,0.6%
CCCCc1ccc(NC(=O)CSc2nc3ccccc3nc2N2CCCCC2)cc1,-0.5%
COC(=O)CSc1nc2sc3c(c2c(=O)n1Cc1ccccc1)CCC(C(C)(C)C)C3 (stereo unspecified),-13%
CCc1ccc(NC(=O)CCc2c(C)n(C)c3cc(-c4ccccc4C)nn3c2=O)cc1,-13%
Cc1ccccc1NC(=O)c1c(C)oc2ccc(O)c(CN3CCCC3)c12,-1.8%
COc1ccc(OC)c(NC(=O)CCc2nc(-c3ccc(C)cc3)no2)c1,-0.8%
Cc1ccc(-c2nc3ncccc3o2)cc1NC(=O)c1ccc(-c2cccc(Cl)c2C)o1,-13%
CC1=C(C(=O)Nc2ccc(F)cc2F)C2(CCN(C(C)C)CC2)OC1=O,0.1%
COc1ccc(-n2c(=O)c3c4c(sc3n(CC(=O)C(C)(C)C)c2=O)CCCC4)c(OC)c1,-1.4%

# Among those listed so far, these contain two or more sulfur atoms:
SMILES,ClpP mod
Cc1nc2sc(C)c(C)n2c(=O)c1S(=O)(=O)N1CCN(c2ccccc2F)CC1,?
NC(=O)c1c(NC(=O)c2nc(SCc3ccccc3F)ncc2Cl)sc2c1CCCC2,-0.2%
Cc1cccc(NC(=O)C(NS(=O)(=O)c2cccc3nsnc23)c2ccccc2)c1C (stereo unspecified),20%
Cc1nc(C)c(-c2ccc(SCC(=O)Nc3cccc(C)c3C)nn2)s1,0.6%
O=C(NCc1ccccc1Cl)C1CCC(CNS(=O)(=O)c2ccc(Br)s2)CC1 (stereo unspecified),0.1%
COC(=O)CSc1nc2sc3c(c2c(=O)n1Cc1ccccc1)CCC(C(C)(C)C)C3 (stereo unspecified),-13%

# Next part.
SMILES,ClpP mod
O=S(=O)(/N=C(/Sc1ccccc1)c1ccccc1)c1ccc(Cl)cc1,-4.8%
CCOC(=O)c1ccccc1NC(=O)CSc1ccc(-c2sc(-c3ccccc3)nc2C)nn1,-5.4%
CC(=O)c1[nH]c(C)c(C(=O)NCc2ccc(Cl)cc2)c1C,-1.2%
CCOc1ccc(Nc2c(S(=O)(=O)c3ccc(Cl)cc3)cnc3ccc(OCC)cc23)cc1,-1.7%
CCCn1cc(S(=O)(=O)c2ccc(OC)cc2)c(=O)c2cc(F)c(N3CCCC(C)C3)cc21 (stereo unspecified),20µM*
Cn1c2ccccc2c2cnn(CC(=O)Nc3ccccc3C(F)(F)F)c(=O)c21,-27%
COCCCNC(=O)C(C)n1c2ccccc2c2cnn(C)c(=O)c21 (stereo unspecified),4.1%
CC(=O)N1c2ccc(S(=O)(=O)NCC3CCC(C(=O)Nc4cc(C)ccc4C)CC3)cc2CC1C (stereo unspecified),0.6%
COC(=O)c1ccc(Cl)cc1NC(=O)NCCc1c(C)nn(C)c1C,-16%
O=C(CCS(=O)(=O)c1ccc(Br)s1)Nc1c(F)cccc1F,-3.5%
Nc1cc(=O)nc(SCC(=O)Nc2ccccc2)n1CCc1ccccc1,-0.1%
CCOC(=O)c1cc(-c2ccc(F)cc2)n(CC(=O)NCc2ccc(OC)cc2)c1C,-0.8%
Cc1cccc(C(=O)Nc2cccc(C(=O)OCc3cc(=O)n4nc(C5CC5)sc4n3)c2)c1,-2.9%
CCn1nc(C)c(CCN(C)C(=O)Nc2ccc(C)c(Cl)c2)c1C,-0.8%
COc1ccc(-c2cc(-c3ccccc3)nc(SCC(=O)Nc3ccccc3C)c2C#N)cc1,-20%
CCc1ccc(NCc2cc3ccc(OC)cc3n(CC(=O)Nc3ccccc3C)c2=O)cc1,4.6%
CCOC(=O)C1CCCN(CCC(=O)Nc2ccc(OC)cc2OC)C1 (stereo unspecified),0.1%
COc1ccc(C2=C(Nc3ccc(Br)c(C)c3)c3ccccc3C2=O)cc1,0.6%
CCOC(=O)c1cc2c(=O)n3ccccc3nc2n(CC(C)C)c1=NC(=O)c1cc2ccccc2o1,-12%
CCOC(=O)C1CCCN(Cc2cn3c(-c4cccc(Br)c4)nnc3s2)C1 (stereo unspecified),-0.7%
Cc1cccc(-c2c3c(=O)n(C)c(=O)n(C)c3c3c(C)nc4ccccc4n23)c1,-14%
COc1ccc(C(=O)Nc2cc(NC(=O)c3ccco3)ccc2OC)cc1Cl,1.7%
COc1ccc(-c2nn3c(=O)cc(CN4CCN(C(=O)/C=C/c5ccccc5)CC4)nc3s2)cc1,3.4%
O=C(c1ccccc1)c1ccc2nc(N3CCN(c4ccc(F)cc4)CC3)c3nncn3c2c1,0.2%
O=C(NCc1ccc(F)cc1)C(=O)Nc1ccc2nc3n(c(=O)c2c1)CCCCC3,-1.3%
Cc1ccc(CNc2oc(-c3ccc(COc4ccc(C)cc4)o3)nc2C#N)cc1,25µM*
COc1cccc(NC(=O)Cn2c(=O)n(CCc3cccc(C)c3)c(=O)c3ccccc32)c1,-25%
Cc1cccn2c(=O)cc(COc3ccc(NC(=O)COc4ccc(F)cc4)cc3)nc12,0.6%
CC1=C(C(N)=O)C(c2cccc(F)c2)n2nc(SCc3ccccc3)nc2N1 (stereo unspecified),-12%
CCc1ccccc1NS(=O)(=O)c1ccc2c(c1)CCCN2C(=O)C1CCC1,0.0%
COc1ccc(Cn2ccnc2SCC(=O)Nc2ccc3c(c2)OCO3)cc1,1.0%
COc1ccc(NC2=C(c3ccccc3)C(=O)c3ccccc32)cc1Cl,-2.0%
CCCSc1ncc(Cl)c(C(=O)NCc2ccc(C)cc2)n1,4.8%
O=C(Nc1ccc(Br)cc1)c1ccc(F)c(S(=O)(=O)N2CCCc3ccccc32)c1,-29%
COc1cccc(CNC(=O)Cn2c(=O)n3nc(-c4cccc(F)c4)nc3c3ccccc32)c1,-2.0%
Cc1ccn2c(Nc3ccc(C(C)C)cc3)c(-c3cccs3)nc2c1,3.1%
Cc1ccc(OCC(=O)Nc2ccc3nc(SCCOc4ccccc4)sc3c2)cc1,-2.8%

# Ordered by molar mass (smallest number first): part of the list above
SMILES,ClpP mod
CCCSc1ncc(Cl)c(C(=O)NCc2ccc(C)cc2)n1,4.8%
COc1ccc(NC2=C(c3ccccc3)C(=O)c3ccccc32)cc1Cl,-2.0%
Cc1ccc(OCC(=O)Nc2ccc3nc(SCCOc4ccccc4)sc3c2)cc1,-2.8%
